# Compound activity from PubChem BioAssay.
# UUG fidelity: alters start codon recognition fidelity in yeast; S. cerevisiae UUG-firefly luciferase reporter, luminescence/redox ratio; activity score, % at 18.7 µM; 350,000 compounds, 0.13% hits; AID 602363;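 active = replicate mean at a twofold rise or more, about +100% in these data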;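 note: firefly luciferase made from a UUG start codon reports start codon fidelity; reporter light over untreated wells divided by growth signal over untreated wells; some hits fall short of that in this replicate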
# Env fusion inh: blocks HIV Env-driven cell-cell fusion | HeLa-JRFL Env/CEM21 cell fusion, luciferase | inhibition, % at 12.3 µM | 360,000 compounds, 1.1% hits;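 active = mean replicate inhibition score of at least 50 and every replicate individually at or above 50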;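 note: 0% = plate neutral controls and 100% = maraviroc near 300 nM; one replicate is shown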
# * marks the source's active call; other numbers are inactive results; [ ] = remark or other dose. These rows are one share of the data. The share of hits here may be higher or lower than overall.
UUG fidelity	Env fusion inh	SMILES
2	-17[16.7 µM]	O=C(C[C@@H]1CC[C@@H]2[C@H](COC[C@H](O)CN2C(=O)Nc2ccc(Cl)cc2)O1)NCC1CCCCC1
8	6[16.7 µM]	O=C(NCC[C@@H]1CC[C@H](NS(=O)(=O)Cc2ccccc2)[C@@H](CO)O1)C1CCCC1
2	10[16.7 µM]	COc1ccccc1CNC(=O)C[C@H]1C=C[C@H](NC(=O)CC2CC2)[C@H](CO)O1
43	-7[16.7 µM]	CN1C(=O)c2cc(NC(=O)C3CC3)ccc2OC[C@H]2O[C@@H](CC(=O)NCCc3ccncc3)CC[C@@H]21
-7	83*[16.7 µM]	C[C@H](CO)N1C[C@H](C)[C@H](CN(C)S(=O)(=O)c2ccc(F)cc2)Oc2ccc(NC(=O)Nc3cccc4ccccc34)cc2CC1=O
-16	-8	Cc1ccccc1-c1cc(C(=O)NCc2ccc(OC(F)(F)F)cc2)n(CC2CC(c3cccnc3)=NO2)n1 (stereo not drawn)
15	11[16.7 µM]	C[C@@H]1CCCCO[C@H](CN(C)C(=O)CCCN(C)C)[C@@H](C)CN([C@@H](C)CO)C(=O)c2cc(NC(=O)NC3CCCCC3)ccc2O1
-10	-32[16.7 µM]	C[C@H]1CN([C@@H](C)CO)C(=O)Cc2cc(NC(=O)CCCCCC(=O)Nc3ccccc3N)ccc2O[C@@H]1CN(C)Cc1ccc(C(F)(F)F)cc1
-3	-184[16.7 µM]	C[C@@H]1CN([C@@H](C)CO)C(=O)Cc2cc(NS(=O)(=O)c3cccs3)ccc2O[C@@H]1CN(C)Cc1ccc(C(=O)Nc2ccccc2N)cc1
21	-15[16.7 µM]	C[C@@H]1CN([C@H](C)CO)C(=O)c2cc(C3=CCCCC3)cnc2O[C@H]1CN(C)C(=O)c1ccc(F)cc1
-6	1[16.7 µM]	C[C@@H]1CN([C@@H](C)CO)C(=O)c2cc(NS(=O)(=O)c3cn(C)cn3)ccc2O[C@@H]1CN(C)S(=O)(=O)c1ccccc1
17	12[16.7 µM]	C[C@H](CO)N1C[C@H](C)[C@H](CN(C)S(=O)(=O)c2ccccc2)Oc2c(NC(=O)Nc3ccc(F)cc3)cccc2C1=O

# (more compounds)
UUG fidelity	Env fusion inh	SMILES
8	13[16.7 µM]	O=C(C[C@@H]1C[C@H]2c3cc(NC(=O)Nc4ccccc4)ccc3O[C@H]2[C@@H](CO)O1)NC1CCCC1
17	6[16.7 µM]	CCCC#Cc1cnc2c(c1)C(=O)N([C@@H](C)CO)C[C@@H](C)[C@@H](CN(C)C(=O)c1ccc(F)cc1)O2
-7	-3[16.7 µM]	COc1ccc(NC(=O)Nc2ccc3c(c2)C(=O)N([C@H](C)CO)C[C@H](C)[C@H](CN(C)C(=O)NC2CCCCC2)O3)cc1
-25	-4[16.7 µM]	CCNC(=O)C[C@H]1C=C[C@@H](NC(=O)NC2CCCCC2)[C@@H](CO)O1
-11	5[16.7 µM]	C/C=C/c1cnc2c(c1)C(=O)N([C@@H](C)CO)C[C@H](C)[C@@H](CN(C)S(=O)(=O)c1cccs1)O2
15	-1[16.7 µM]	CCCC#Cc1ccc([C@@H]2[C@@H](C#N)N(C(=O)C3CC3)[C@H]2CO)cc1
-11	5[16.7 µM]	C[C@@H]1CCCCO[C@@H](CN(C)S(=O)(=O)c2cccs2)[C@@H](C)CN([C@@H](C)CO)C(=O)c2cc(NC(=O)Nc3ccccc3)ccc2O1
2	3[16.7 µM]	CO[C@@H]1CN(C)C(=O)c2ccc(NC(=O)c3cc(C)on3)cc2OC[C@H](C)N(C(C)=O)C[C@H]1C
10	-3[16.7 µM]	CC(C)NC(=O)N(C)C[C@H]1Oc2ccc(NC(=O)Nc3ccc(F)cc3)cc2CC(=O)N([C@@H](C)CO)C[C@H]1C
5	-45[16.7 µM]	C[C@@H]1CN([C@H](C)CO)S(=O)(=O)c2ccc(-c3ccc(C(=O)N(C)C)cc3)cc2O[C@H]1CN(C)Cc1ccccc1C(=O)O
54	-11[16.7 µM]	O=C(C1=C[C@H](c2coc3ccccc3c2=O)C[C@H](OCc2ccc(CO)cc2)O1)N1CCCCCCC1
4	9[16.7 µM]	C[C@@H]1CN([C@@H](C)CO)C(=O)c2cccc(NC(=O)C3CCOCC3)c2O[C@@H]1CN(C)CC1CCCCC1

# Next section:
UUG fidelity	Env fusion inh	SMILES
-5	-53[16.7 µM]	C[C@@H]1CN([C@@H](C)CO)C(=O)c2cccc(NS(=O)(=O)c3cccs3)c2O[C@@H]1CN(C)S(=O)(=O)c1ccc(Cl)cc1
-6	22[16.7 µM]	N#C[C@H]1[C@H](c2ccc(C3=CCCCC3)cc2)[C@H](CO)N1C(=O)NC1CCCCC1
8	37[16.7 µM]	C/C=C/c1ccc2c(c1)O[C@H](CN(C)C(=O)NC1CCCCC1)[C@H](C)CN([C@H](C)CO)S2(=O)=O
3	29[16.7 µM]	C[C@@H]1CN([C@H](C)CO)S(=O)(=O)c2ccc(C3=CCCC3)cc2O[C@H]1CN(C)C
-5	-4[16.7 µM]	C[C@@H]1CN([C@H](C)CO)C(=O)Cc2cc(NC(=O)C3CC3)ccc2O[C@@H]1CN(C)S(C)(=O)=O
15	-31[16.7 µM]	C[C@@H]1CN([C@H](C)CO)S(=O)(=O)c2ccc(-c3ccc(C(=O)N(C)C)cc3)cc2O[C@@H]1CN(C)C(=O)Nc1ccccc1F
42	4[16.7 µM]	C[C@@H]1CCCCO[C@@H](CN(C)C(=O)NC2CCCCC2)[C@@H](C)CN([C@H](C)CO)C(=O)c2cc(NC(=O)CCCCCC(=O)Nc3ccccc3N)ccc2O1
24	31[16.7 µM]	CN1C(=O)c2cc(NC(=O)c3cccc(F)c3)ccc2OC[C@H]2O[C@@H](CC(=O)NCc3ccccc3)CC[C@H]21
-7	-1[16.7 µM]	O=C(C[C@H]1C[C@@H]2c3cc(NC(=O)CC4CC4)ccc3O[C@@H]2[C@H](CO)O1)NCc1ccncc1
1	-7[16.7 µM]	C[C@@H]1CN([C@H](C)CO)C(=O)c2cc(NS(=O)(=O)c3cccs3)ccc2O[C@H]1CN(C)CC1CC1
2	-8[16.7 µM]	C[C@@H]1CN([C@@H](C)CO)C(=O)c2cc(NC(=O)CCCCCC(=O)Nc3ccccc3N)ccc2O[C@@H]1CN(C)C(=O)Nc1ccccc1
-15	6[16.7 µM]	Cc1ccc(-c2cnc3c(c2)C(=O)N([C@@H](C)CO)C[C@H](C)[C@@H](CN(C)C)O3)cc1

# (more compounds)
UUG fidelity	Env fusion inh	SMILES
11	-62[16.7 µM]	C[C@@H]1CCCCO[C@H](CN(C)C(=O)Nc2ccc3c(c2)OCO3)[C@@H](C)CN([C@@H](C)CO)C(=O)c2cc(NC(=O)c3ccccc3)ccc2O1
33	-28[16.7 µM]	C[C@@H]1CN([C@H](C)CO)C(=O)c2cc(NC(=O)Nc3ccccc3)ccc2O[C@@H](C)CCCCO[C@@H]1CN(C)C(=O)c1ccccc1
25	-38[16.7 µM]	C[C@H](CO)N1C[C@H](C)[C@H](CN(C)C(=O)CCC(F)(F)F)OCCCC[C@H](C)Oc2ccc(NS(=O)(=O)c3ccccc3)cc2C1=O
-3	5[16.7 µM]	CCCN(C)C[C@@H]1Oc2cc(Br)ccc2S(=O)(=O)N([C@@H](C)CO)C[C@@H]1C
0	2[16.7 µM]	CN1C(=O)c2cc(NC(=O)Cc3cccs3)ccc2OC[C@@H]2O[C@@H](CC(=O)NCC3CC3)CC[C@@H]21
-9	3[16.7 µM]	O=C(C[C@H]1C[C@@H]2c3cc(NC(=O)c4cccnc4)ccc3O[C@@H]2[C@@H](CO)O1)NCc1ccccc1F
-18	10[16.7 µM]	O=C(N[C@@H]1CC[C@H](CC(=O)N2CCc3ccccc3C2)O[C@@H]1CO)C1CCC1
-7	1[16.7 µM]	O=C(N[C@H]1CC[C@@H](CCNC(=O)C2CCCC2)O[C@@H]1CO)c1ccccn1
1	23[16.7 µM]	C[C@@H]1CN([C@H](C)CO)C(=O)c2cccc(NC(=O)c3nc4ccccc4s3)c2O[C@@H]1CN(C)Cc1ccc(-c2ccccc2)cc1
5	6[16.7 µM]	COc1cccc(NC(=O)N(C)C[C@@H]2Oc3ncc(/C=C/c4ccccc4)cc3C(=O)N([C@@H](C)CO)C[C@@H]2C)c1
-2	11[16.7 µM]	CO[C@H]1CN(C)C(=O)c2cc(NS(C)(=O)=O)ccc2OC[C@H](C)N(Cc2ccccc2)C[C@H]1C
-3	29[16.7 µM]	Cc1cc(C(=O)Nc2cccc3c2O[C@@H](CN(C)Cc2ccc(Oc4ccccc4)cc2)[C@H](C)CN([C@H](C)CO)C3=O)n(C)n1

# The listing continues:
UUG fidelity	Env fusion inh	SMILES
-13	13[16.7 µM]	Cc1noc(C)c1NC(=O)N(C)C[C@H]1Oc2ccc(NC(=O)Cn3cnnn3)cc2CC(=O)N([C@H](C)CO)C[C@H]1C
5	-40[16.7 µM]	COc1ccc(S(=O)(=O)Nc2ccc3c(c2)C(=O)N([C@@H](C)CO)C[C@H](C)[C@H](CN(C)C(=O)Nc2ccc(C(F)(F)F)cc2)O3)cc1
33	-5[16.7 µM]	CC(C)CN1C(=O)[C@@]2(c3ccc([N+](=O)[O-])cc3)CC(=O)N(CC3C4CC5CC(C4)CC3C5)[C@@H]2c2ccc(CO)cc21 (stereo partly drawn)
9	-16[16.7 µM]	COc1ccc(S(=O)(=O)N(C)C[C@H]2OCCCC[C@H](C)Oc3ccc(NC(=O)NC4CCCCC4)cc3C(=O)N([C@H](C)CO)C[C@@H]2C)cc1
6	-10[16.7 µM]	COc1ccc(S(=O)(=O)Nc2ccc3c(c2)C(=O)N([C@H](C)CO)C[C@H](C)[C@@H](CN(C)C)O3)cc1
-15	-1[16.7 µM]	O=C(NCc1nc2ccccc2[nH]1)C1=C[C@H](c2ccc(Br)cc2)C[C@H](OCCCCO)O1
-1	1	C[C@H]1CN([C@@H](C)CO)S(=O)(=O)c2ccc(Br)cc2O[C@H]1CN(C)C(=O)c1ccccc1F
20	4[16.7 µM]	COc1ccc(CN(C)C[C@@H]2OCCCC[C@@H](C)Oc3ccc(NS(=O)(=O)c4cn(C)cn4)cc3C(=O)N([C@@H](C)CO)C[C@H]2C)cc1
-26	-5[16.7 µM]	C[C@@H]1CN([C@H](C)CO)C(=O)c2cccc(NS(=O)(=O)c3ccccc3)c2O[C@@H]1CN(C)Cc1ccc(C(=O)O)cc1
-1	-11[16.7 µM]	Cc1ccc(S(=O)(=O)Nc2cccc3c2O[C@@H](CN(C)CC2CC2)[C@@H](C)CN([C@H](C)CO)C3=O)cc1
-19	-29[16.7 µM]	C[C@@H]1CN([C@H](C)CO)C(=O)c2cc(C#CCN(C)C)cnc2O[C@@H]1CN(C)C(=O)Cc1ccncc1
4	-7[16.7 µM]	C[C@@H]1CN([C@H](C)CO)C(=O)c2cccc(NC(=O)Nc3ccc(C(F)(F)F)cc3)c2O[C@H]1CN(C)C(=O)Nc1ccccc1

# Next compounds follow:
UUG fidelity	Env fusion inh	SMILES
1	14[16.7 µM]	C[C@@H]1CN([C@@H](C)CO)C(=O)c2cccc(NC(=O)c3ccc(-c4nccs4)cc3)c2O[C@@H]1CN(C)Cc1ccc(-c2ccccc2)cc1
171*	8[16.7 µM]	C[C@@H](NC(=O)C[C@@H]1CC[C@H](NC(=O)C2CCOCC2)[C@H](CO)O1)c1ccccc1
-6	-12[16.7 µM]	C[C@H](CO)N1C[C@H](C)[C@@H](CN(C)S(=O)(=O)c2cccs2)Oc2ccc(NC(=O)CCN3CCOCC3)cc2C1=O
9	-11[16.7 µM]	O=C(C[C@@H]1C[C@H]2c3cc(NC(=O)NC4CCCCC4)ccc3O[C@H]2[C@H](CO)O1)NCC1CC1
4	-20[16.7 µM]	CCCNC(=O)C[C@H]1CC[C@H]2[C@H](COc3ccc(NS(=O)(=O)c4ccccc4C)cc3C(=O)N2C)O1
-3	-19[16.7 µM]	CN1C(=O)c2cc(NC(=O)c3ccc(C#N)cc3)ccc2OC[C@H]2O[C@@H](CC(=O)NC3Cc4ccccc4C3)CC[C@@H]21
-12	-12[16.7 µM]	O=C(O)C[C@H]1C[C@H]2c3cc(NC(=O)Nc4ccccc4)ccc3O[C@H]2[C@@H](CO)O1
31	-21[16.7 µM]	Cc1noc(C)c1S(=O)(=O)Nc1ccc2c(c1)C(=O)N([C@@H](C)CO)C[C@H](C)[C@H](CN(C)Cc1ccccc1)OCCCC[C@@H](C)O2
-17	10[16.7 µM]	C[C@H](CO)N1C[C@H](C)[C@@H](CN(C)C(=O)Nc2ccccc2F)Oc2cc(-c3cccc(C#N)c3)ccc2S1(=O)=O

# Reformatted with values under each structure: part of the list above
# Values run as follows: UUG fidelity, Env fusion inh
> C[C@H](CO)N1C[C@H](C)[C@@H](CN(C)S(=O)(=O)c2cccs2)Oc2ccc(NC(=O)CCN3CCOCC3)cc2C1=O
→ -6, -12[16.7 µM]
> O=C(C[C@@H]1C[C@H]2c3cc(NC(=O)NC4CCCCC4)ccc3O[C@H]2[C@H](CO)O1)NCC1CC1
→ 9, -11[16.7 µM]
> CCCNC(=O)C[C@H]1CC[C@H]2[C@H](COc3ccc(NS(=O)(=O)c4ccccc4C)cc3C(=O)N2C)O1
→ 4, -20[16.7 µM]
> CN1C(=O)c2cc(NC(=O)c3ccc(C#N)cc3)ccc2OC[C@H]2O[C@@H](CC(=O)NC3Cc4ccccc4C3)CC[C@@H]21
→ -3, -19[16.7 µM]

# Single records, as listed above. Order of screens: UUG fidelity	Env fusion inh
# Entry for `Cc1noc(C)c1S(=O)(=O)Nc1ccc2c(c1)C(=O)N([C@@H](C)CO)C[C@H](C)[C@H](CN(C)Cc1ccccc1)OCCCC[C@@H](C)O2` → 31	-21[16.7 µM]
# Entry for `CCCNC(=O)C[C@H]1CC[C@H]2[C@H](COc3ccc(NS(=O)(=O)c4ccccc4C)cc3C(=O)N2C)O1` → 4	-20[16.7 µM]
# Entry for `O=C(O)C[C@H]1C[C@H]2c3cc(NC(=O)Nc4ccccc4)ccc3O[C@H]2[C@@H](CO)O1` → -12	-12[16.7 µM]
